# FGF22 binding = shifts melting point of recombinant human FGF22. Q9HCT0. recombinant FGF22 thermal shift, SYPRO orange fluorescence; percent of sucrose octasulfate shift, DMSO zero. calls only at 9.99 µM. 340,000 tested, 1.5% active;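 active means melting point raised past a set limit in the mean and every replicate; three in four hits are not shown here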
# Target sequence (Q9HCT0 whole entry, looked up): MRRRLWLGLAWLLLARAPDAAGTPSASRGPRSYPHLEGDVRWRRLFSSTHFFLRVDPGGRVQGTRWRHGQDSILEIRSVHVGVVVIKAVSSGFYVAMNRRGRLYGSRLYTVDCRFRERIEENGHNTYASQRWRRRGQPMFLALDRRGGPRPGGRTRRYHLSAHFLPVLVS
# T cruzi inh = blocks replication of Trypanosoma cruzi; T. cruzi beta-gal in NIH3T3, luminescence, 90 h; 300,000 tested, 1.4% active; inhibition, % (test concentration not listed);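 active means mean inhibition across valid replicates above about 55%, limit read from the data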;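 further: signal also drops with host cell toxicity which is not excluded here; 0% = plate median of DMSO wells and 100% = zero luminescence signal; higher percent means less beta-gal luminescence so fewer parasites; stock transfer was 50 nL into about 50 µL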
# UCH37 DUB inh = inhibitors of human deubiquitinating enzyme UCH37. inhibition, % (test concentration not listed). 330,000 tested, 0.33% active. purified proteasome/UCH37, Ub-AMC cleavage fluorescence;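 active means mean of two replicates above 20%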;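 further: 0% = compound-free wells with enzyme and 100% = wells lacking proteasome; stock transfer was 100 nL into about 20 µL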
# Target sequence (Q9Y5K5 whole entry, looked up): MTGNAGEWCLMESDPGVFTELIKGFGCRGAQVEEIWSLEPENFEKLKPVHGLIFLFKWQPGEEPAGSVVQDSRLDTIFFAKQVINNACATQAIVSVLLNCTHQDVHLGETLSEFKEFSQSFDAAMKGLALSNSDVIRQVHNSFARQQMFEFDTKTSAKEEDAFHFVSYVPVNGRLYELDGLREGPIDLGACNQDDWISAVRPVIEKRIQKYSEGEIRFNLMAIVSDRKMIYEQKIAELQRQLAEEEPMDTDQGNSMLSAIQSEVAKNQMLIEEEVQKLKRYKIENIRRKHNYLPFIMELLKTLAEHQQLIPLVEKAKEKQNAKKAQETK
#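 Material: Human UCH37 enzyme supplied as purified proteasome complex | Schedule: 30 min compound-proteasome preincubation then 25 min substrate reaction, room temperature | Detection: AMC fluorescence from Ub-AMC cleavage, excitation 355 nm, emission 460 nm | Benchmarks: Wells without proteasome as full block, compound-free enzyme plus substrate as uninhibited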
# Beta cell apopt = blocks beta cell apoptosis | INS-1E cytokine-induced death, ATP luminescence, 48 h; percent of positive-control rescue, neutral wells zero | protection from apoptosis, % (test concentration not listed) | 300,000 tested, 0.8% active | AID 435005;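 active means all replicates at 75% or more, or half of them and the mean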;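 further: 0% = cytokine-treated negative control wells and 100% = positive control rescue; higher means more ATP so stronger rescue from cytokine killing; wells of about 40 µL received 100 nL stock; the first replicate is given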
# Ecoli growth = blocks Escherichia coli growth. OD600, 23 h; hits give low values. OD600 absorbance (no concentration beside the values). 330,000 tested, 0.21% active. AID 1053175;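 active means OD600 absorbance below the run mean of sample wells minus 3.6 SD, in any replicate, cut at about 0.56 in these data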;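 further: stock transfer was 300 nL into about 60 µL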
# rRNA inh HTS = inhibitors of bacterial rRNA selective over humanized ribosomes | 350,000 tested, 1.6% active | GFP signal change (wild-type ribosome), % (no concentration beside the values) | E. coli WT GFP vs humanized-ribosome RFP mutants, fluorescence, 24 h; hits give low values; DMSO median 0, no signal -100;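 active means significant combined selectivity score with lowered wild-type GFP, culture density cut under 30%, mutant RFP and density less affected; inactive means any of these conditions unmet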; further: one replicate is shown; some compounds called inactive have numbers as strong as hits
# Bfl-1 A1 inh = inhibitors of the anti-apoptotic protein A1, read as caspase activation; MEF A1-2A-BIM cells, Caspase-Glo 3/7 luminescence, 3 h; percent of clofoctol response, vehicle zero; caspase activation, % (test concentration not listed); 330,000 tested, 0.066% active; AID 2462;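 active means over half of replicate activation scores above 10%, or exactly half above 10 with the replicate mean above 10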;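 further: wells of about 30 µL received 50 nL stock; many hits fall short of the cut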
# MLL AF4-AF9 inh = inhibitors of human MLL-AF4/AF9 interaction; 350,000 tested, 0.47% active; inhibition, % at 10 µM; AlphaScreen, biotin-AF4 peptide binding to FLAG-AF9;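 active means every replicate reaching a set inhibition limit, whatever the replicate mean, cut at about 25% in these data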;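 further: 0% = plate neutral control median and 100% = total signal loss; the record names both 10 and 1 µM as test concentration; the first replicate is given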
# Target sequence (P42568 whole entry, looked up): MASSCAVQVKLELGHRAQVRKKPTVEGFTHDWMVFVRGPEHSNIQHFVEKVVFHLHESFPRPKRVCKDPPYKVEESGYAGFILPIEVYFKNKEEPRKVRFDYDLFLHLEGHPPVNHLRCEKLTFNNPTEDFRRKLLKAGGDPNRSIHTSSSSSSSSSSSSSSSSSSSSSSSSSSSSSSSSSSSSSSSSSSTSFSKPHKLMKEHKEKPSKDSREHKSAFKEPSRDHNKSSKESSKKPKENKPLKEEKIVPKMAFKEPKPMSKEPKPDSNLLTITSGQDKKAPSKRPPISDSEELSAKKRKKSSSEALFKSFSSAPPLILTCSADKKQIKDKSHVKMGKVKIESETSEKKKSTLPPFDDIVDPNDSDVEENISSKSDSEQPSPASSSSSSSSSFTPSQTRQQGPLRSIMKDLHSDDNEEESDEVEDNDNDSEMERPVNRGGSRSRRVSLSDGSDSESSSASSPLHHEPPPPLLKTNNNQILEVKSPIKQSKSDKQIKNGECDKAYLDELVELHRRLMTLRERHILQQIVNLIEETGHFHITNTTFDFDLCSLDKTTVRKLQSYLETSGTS
# rRNA inh HTS OD600 = recorded beside rRNA inh HTS, whose call it bears; OD600 change, %; measured here: OD600 growth;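 optical density of the mix in the first replicate; 0 = DMSO median and -100 = no signal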
# rRNA inh HTS RFP = also measured in rRNA inh HTS; calls as there; RFP signal change, %; measured here: RFP humanized mutant strains;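 first replicate; 0 = DMSO median and -100 = no signal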
# * marks the source's active call; other numbers are inactive results; i = inactive; · = not tested or not shown. An excerpt; the hit share may differ from the screen's.
molecule	T cruzi inh	FGF22 binding	UCH37 DUB inh	Bfl-1 A1 inh	Ecoli growth	Beta cell apopt	rRNA inh HTS	MLL AF4-AF9 inh	rRNA inh HTS OD600	rRNA inh HTS RFP
Cc1cccn2c(CN[C@H]3CCCCNC3=O)c(C(=O)N3CCOCC3)nc12	-5.1	·	-3.6	0.1	0.682	-6.8	2.5	-2.0	8.1	0.5
CCOC(=O)N1CCN(C(=O)C2CCC(=O)N2C(C)C)CC1 (centres undefined)	-5.6	·	0.3	0.0	0.722	-2.8	·	·	·	·
C/C(=N\NC(=O)C1CCCC1)c1ccc(Cl)c(Cl)c1	·	i	·	1.1	·	5.0	16.1	-8.0	15.2	3.0
NS(=O)(=O)c1ccc(NC(=S)NCc2cccc(Cl)c2)cc1	-13.5	i	1.2	0.1	0.679	-0.6	-10.6	2.1	-10.9	-6.3
CCOC(=O)CN1C(=O)CSc2ccc(S(=O)(=O)N3CCOCC3)cc21	-12.3	i	-0.3	0.6	0.638	-7.5	4.0	0.2	2.4	-1.3
Cc1ccc(-n2c(CSc3nc(C)cc(C)n3)nnc2SCC(=O)N2CCCC2)cc1	-3.5	·	3.5	1.2	0.689	-13.6	·	·	·	·
N#CCCNc1ccc(OCCC#N)cc1	-9.1	·	0.1	-0.3	0.697	-3.5	14.9	·	9.7	1.4
O=C(O)c1ccccc1C(=O)NCC(O)COc1ccc(Cl)cc1 (centres undefined)	0.5	i	-0.8	-1.0	0.702	5.1	-0.3	5.0	-11.3	3.0
CCc1ccccc1NC(=S)N1CCN(c2ccccc2F)CC1	-17.4	i	3.6	-0.2	0.66	-3.5	2.7	-1.0	9.4	-1.7
COc1cc(OC)cc(C(=O)NC2CC3CCC(C2)N3C)c1 (centres undefined)	·	i	3.1	0.4	0.652	-2.9	2.3	-15.1	6.3	-2.4
Cc1c(N=C2NC(=O)C(CC(=O)Nc3ccccc3)S2)c(=O)n(-c2ccccc2)n1C (centres undefined)	5.0	·	-1.5	-0.5	0.762	-10.0	·	·	·	·
COc1ccc(OC)c(S(=O)(=O)N/N=C\c2c[nH]c3ccccc23)c1	-20.9	i	·	0.3	·	-1.9	3.2	0.3	-6.9	4.6

# Reprinted at random: 2 records from the list.
molecule	T cruzi inh	FGF22 binding	UCH37 DUB inh	Bfl-1 A1 inh	Ecoli growth	Beta cell apopt	rRNA inh HTS	MLL AF4-AF9 inh	rRNA inh HTS OD600	rRNA inh HTS RFP
C/C(=N\NC(=O)C1CCCC1)c1ccc(Cl)c(Cl)c1	·	i	·	1.1	·	5.0	16.1	-8.0	15.2	3.0
NS(=O)(=O)c1ccc(NC(=S)NCc2cccc(Cl)c2)cc1	-13.5	i	1.2	0.1	0.679	-0.6	-10.6	2.1	-10.9	-6.3

# (continued)
molecule	T cruzi inh	FGF22 binding	UCH37 DUB inh	Bfl-1 A1 inh	Ecoli growth	Beta cell apopt	rRNA inh HTS	MLL AF4-AF9 inh	rRNA inh HTS OD600	rRNA inh HTS RFP
COc1cccc(COc2nc3c(c(=O)n(C)c(=O)n3C)n2C)c1	-2.0	·	4.2	-0.1	0.716	0.3	·	·	·	·
COc1ccc(S(=O)(=O)N2CCC(C(=O)NCC(c3cccs3)N(C)C)CC2)cc1 (centres undefined)	-10.6	·	3.6	0.0	0.659	-3.8	·	·	·	·
CCc1nc(CN2CCN(c3cc(C(F)(F)F)ccn3)CC2)c(C)[nH]1	14.2	i	1.2	-1.2	0.647	-2.4	-7.2	1.0	0.3	-0.1
COc1cccc(C(=O)CSc2nc3ccccc3n2CC(=O)N(C(C)C)C(C)C)c1	7.5	·	-3.7	-0.8	0.778	-1.7	·	·	·	·
CN(c1ccccc1)S(=O)(=O)c1ccc(NC(=O)c2nc(S(C)(=O)=O)ncc2Cl)cc1	-6.3	i	·	0.6	·	98.8*	-17.6	-1.4	-15.9	0.7
O=C(NC1(C(F)(F)F)NC(=O)N(Cc2ccccc2)C1=O)c1cccs1 (centres undefined)	-7.8	·	1.2	-0.1	0.657	-0.5	·	·	·	·
CC(=O)Nc1ccc(Nc2c([N+](=O)[O-])c(=O)n(-c3ccccc3)c3ccccc23)cc1	-25.2	i	4.8	-0.9	0.72	-1.3	20.1	-3.2	10.2	1.6
CCCCN(C)CCCNC(=O)C1(O)c2ccccc2NC(=O)N1c1ccc(Cl)cc1 (centres undefined)	-2.3	i	0.8	0.1	0.675	-4.1	2.2	-1.1	6.2	-2.0
CCn1c(CSc2nc3ccccc3s2)nnc1SCC(=O)c1ccc2c(c1)OCCO2	7.9	·	0.6	0.0	0.721	-8.1	·	·	·	·
Cc1nn(CC(=O)Nc2nnc(CC(=O)N3CCCC3)s2)c(=O)c2ccccc12	1.3	·	1.6	0.3	0.672	2.8	·	·	·	·
CC(=O)Nc1ccccc1-c1nc2ccc(C(=O)N3CCN(c4cccc(C)c4)C(C)C3)cc2[nH]c1=O (centres undefined)	-5.8	i	4.8	-0.4	0.724	-3.0	-3.7	10.5	-6.7	-0.3
CCCC(c1nnnn1CC(=O)OCC)N(Cc1cc2c(C)cc(C)cc2[nH]c1=O)C1CCCC1 (centres undefined)	21.3	·	0.4	-0.2	0.739	-1.8	·	·	·	·
COc1ccccc1-c1c(C#N)c(N)nc2c1CCC2	-15.1	i	-205.0	0.7	0.675	-10.3	8.3	-2.1	17.8	4.9
O=C(NCC(c1ccco1)N1CCCC1)c1ccc(Cl)c(S(=O)(=O)N2CCc3ccccc32)c1 (centres undefined)	·	i	2.1	-1.4	0.664	74.9*	-59.0	8.2	-73.9	-16.5
CCN1C(=O)C2(C(C(=O)c3ccc(C)o3)=C(O)C(=O)N2CCCN(C)C)c2ccccc21 (centres undefined)	-2.4	i	6.8	0.4	0.649	-8.0	-3.3	-0.3	4.2	-0.4
CCOCCOC(=O)C(C)Sc1n[nH]c(=O)[nH]c1=O (centres undefined)	0.8	·	0.9	0.5	0.71	2.3	·	·	·	·
CC12COC3(C(=O)Nc4nccs4)CC1CCC32C (centres undefined)	5.7	·	0.4	1.3	0.685	0.4	·	·	·	·
COC(=O)c1ccc(OC(=O)CCc2cc(OC)c(OC)c(OC)c2)cc1	-0.5	i	3.4	-1.4	0.714	-1.3	2.1	-2.0	2.7	-4.3
O=C1c2nccnc2C(=O)N1c1ccc(F)cc1	·	i	·	0.3	·	-0.2	11.3	-1.2	12.8	-2.3
COc1ccc(CNC(=O)C2CC(c3ccc(C(F)(F)F)cc3)=NO2)cc1 (centres undefined)	-25.5	i	0.5	-0.8	0.699	-4.4	6.8	3.5	4.5	-1.0
Cc1ccc(C)c(N2CCN(C(=O)CCc3nc(-c4ccc(Cl)cc4)no3)CC2)c1	·	i	2.2	·	0.736	·	3.8	-3.6	-0.3	0.1
CCCNC(=O)C1CN(S(=O)(=O)c2ccc(C)cc2)c2ccccc2O1 (centres undefined)	0.6	i	2.0	0.2	0.701	3.4	2.6	2.2	5.3	1.8
COc1cccc(CN(C)C(=O)Nc2cccc(C(F)(F)F)c2)c1OC	-7.1	i	0.8	0.3	0.651	-5.4	-1.0	5.4	0.7	-2.3
O=C1C=C(NC(=O)Nc2ccc(Cl)c(Cl)c2)CCC1	11.5	i	3.6	0.0	0.616	1.6	-55.6	-2.0	-75.0	-15.3
CC1CCCC(NC(=O)c2ccc3c(c2)NC(=O)CS3)C1C (centres undefined)	3.6	i	1.5	0.3	0.719	-1.5	-1.0	-1.5	9.1	0.6
Cc1ccc(-c2nn(CC(=O)NCCN3CCOCC3)c(=O)c3ccccc23)cc1	2.5	·	0.6	0.0	0.686	-0.8	·	·	·	·
CCOc1ncccc1C(=O)OCC(=O)Nc1cc(C(C)(C)C)ccc1OC	·	i	-1.8	-2.0	0.708	-4.4	·	-0.7	·	·
NC(N)=N/N=C/c1ccccc1OC(F)F	15.8	·	·	-0.8	·	-13.2	-0.8	4.7	1.4	-0.7
Cc1cccc(C)c1NC(=O)Cn1c(=O)c2cccn2c2ccccc21	6.0	i	0.1	1.2	0.657	-4.1	2.0	-2.9	9.9	-1.1
Cc1ccccc1CC(=O)NC1CCN(C)CC1	25.6	i	2.3	0.2	0.71	·	4.4	-3.3	9.1	-0.1
COc1ccc(C(CNc2ccc(S(C)(=O)=O)cc2[N+](=O)[O-])N(C)C)cc1OC (centres undefined)	6.4	i	5.8	-0.2	0.652	-3.0	5.0	2.0	2.9	2.0
COc1cc2c(cc1OC)[C@H](C)N(C(=O)COc1ccccc1)CC2	4.5	i	4.3	0.6	0.665	5.2	4.5	1.6	1.1	-0.5
CC(=O)C1=C(O)C(=O)N(c2cccc(Br)c2)C1c1ccccc1Cl (centres undefined)	-3.8	i	·	-0.1	·	3.9	-23.6	-7.9	-23.7	-0.7
CSC1CCCCC1(O)CSc1nc2c(cc1C#N)CCCC2 (centres undefined)	12.6	·	1.9	0.0	0.685	2.9	·	·	·	·
CCC1=C/C(=C/c2sc3ccccc3[n+]2CC)CC(C)(C)C1	23.6	i	4.8	0.8	0.691	2.8	-3.0	4.3	-7.0	1.2
CCn1nc(C)c(Br)c1C(=O)Sc1ccccc1Cl	-8.2	i	1.9	1.5	0.659	·	15.2	-2.1	0.7	-2.7
O=C1c2cccnc2C(=O)N1Cc1ccc(S(=O)(=O)N2CCN(c3ccccc3)CC2)cc1	-9.1	i	0.4	1.2	0.68	-2.2	8.2	-0.3	11.1	-0.5
CCOc1ccc(-c2noc(CCC(=O)NC3CCCCC3)n2)cc1OC	-16.9	i	2.4	0.5	0.71	-8.1	2.2	2.3	15.1	-0.6
Cc1ccc(-c2nnc(NC(=O)CCS(=O)(=O)c3ccc(F)cc3)o2)c(C)c1	4.5	i	0.5	-0.1	0.637	-8.2	10.9	-0.2	7.3	-1.4
C=CCn1c(NCc2cc(Cl)ccc2O)nc2ccccc21	15.1	i	0.7	0.0	0.624	-1.3	-42.1	3.8	-72.6	-0.6
O=C(Nc1ccc(-n2cnnn2)cc1)C1CCCCC1	-10.0	·	-6.3	0.9	0.746	-0.8	·	·	·	·
Cn1c(SCC(=O)Nc2ccc3c(c2)CCC3)nnc1C1CC1	·	i	4.5	-0.5	0.672	-2.8	8.5	-6.5	7.8	0.1
Cc1ccc(NC(=O)CN2CCC(NC(=O)c3cccc(F)c3)CC2)cc1C	-0.4	i	8.1	-0.2	0.656	-4.9	-1.8	2.3	-7.4	0.0
CCCn1c(NCc2cccc(OC)c2OC)nc2ccccc21	3.6	·	1.3	0.2	0.672	0.3	·	·	·	·
CCCC(=O)NC(=S)N1CCN(c2ccc([N+](=O)[O-])cc2)CC1	-2.7	·	2.7	0.4	0.704	-6.6	·	·	·	·
Cc1ccc(-c2noc(CN(C)C(=O)Nc3ccc(F)cc3)n2)cc1	-7.4	i	0.7	0.0	0.714	-8.7	20.6	-1.0	-1.7	0.6
CCOC(=O)c1cnc2c(C)cc(C)cc2c1NCCCN1CCOCC1	0.4	i	1.0	-0.1	0.669	32.0	-2.9	3.1	5.2	-3.0

# Screens from PubChem BioAssay.
